AmpC inh no det – Promiscuous and Specific Inhibitors of AmpC Beta-Lactamase (assay without detergent). AmpC nitrocefin hydrolysis, absorbance 480 nm, no detergent; potencies from a single point are estimates. Potency, µM (titrated, usually from 28.7 µM), for inactives: at the top dose activity change, negative = inhibition. 1.8% of 71,000 active. AID 585, 2007; active = falling curve, for most hits resting on a single point; inconclusive = weak or doubtful change; inactive = flat or rising curve; note: % of control where 0% means no effect; about half of the hits show no inhibition at the top dose; a quarter of the inactives give rising signals
Target sequence (P00811 whole entry, looked up): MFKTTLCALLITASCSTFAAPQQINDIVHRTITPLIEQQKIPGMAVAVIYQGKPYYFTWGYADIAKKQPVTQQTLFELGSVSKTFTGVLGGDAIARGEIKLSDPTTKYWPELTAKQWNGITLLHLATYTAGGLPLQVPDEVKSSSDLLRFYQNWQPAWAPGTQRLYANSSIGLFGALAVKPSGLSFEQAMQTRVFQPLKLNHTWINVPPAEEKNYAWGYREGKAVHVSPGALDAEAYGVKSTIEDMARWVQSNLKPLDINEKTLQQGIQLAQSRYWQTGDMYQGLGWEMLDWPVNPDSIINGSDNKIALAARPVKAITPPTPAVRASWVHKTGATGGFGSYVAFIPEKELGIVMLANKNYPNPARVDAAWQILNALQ
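Enzyme, pH 7.0 phosphate. Compound titrations were pre-incubated with AmpC for 15 min at room temperature before nitrocefin (stock 800 uM) addition; product formation was recorded at 480 nm every 20 s for 4 min.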
* = called active by the depositor; [ ] = dose if it differs, or a comment. Potency is the fitted concentration of half-maximal effect. A portion of the library; the hit share may differ from the screen's.

SMILES | AmpC inh no det
Cc1ccc2cc(CN(Cc3nnnn3C3CCCCC3)CC3CCCO3)c(=O)[nH]c2c1 (stereo not drawn) | 97.4%
Cc1cccc(C)c1NC(=O)CN1CCN(CCCC(c2ccc(F)cc2)c2ccc(F)cc2)CC1 | 114.7%[12.8 µM]
NC(=NCc1ccc(Cl)c(Cl)c1)NC(=O)c1nc(Cl)c(N)nc1N | 12.6µM*[single pt active]
CNC(=O)c1cc(C)c(-c2ccccc2)s1 | -0.3%
O=C(Cn1cc(C(=O)c2ccco2)c2ccccc21)NC1CCCC1 | -7.7%
CN(Cc1ccccc1)Cc1nc2c(c(=O)n(C)c(=O)n2C)n1Cc1ccccc1Cl | 118.4%
O=S(=O)(c1cc(Cl)ccc1Br)N1CCCCC1 | -4.1%
COc1ccc(/C(C)=N\n2cnnc2)cc1 | -4.7%
CCOC(=O)C1=C(N)OC2=C(C(=O)CC(C)(C)C2)C1c1ccoc1 (stereo not drawn) | 10.2%
Cc1ccnc2c(N3C(=O)C4C5C=CC(C5)C4C3=O)cccc12 (stereo not drawn) | 8.7%
CCC(=O)N1CCN(c2ccc(Cl)cc2NC(=O)Cc2ccccc2)CC1 | 84.0%
Nc1ncnc2c([C@@H]3O[C@@H](CO)[C@H](O)[C@@H]3O)nsc12 | -4.0%[5.75 µM]

Overlap with the part before: 7 entries; new compounds follow.
SMILES | AmpC inh no det
CN(Cc1ccccc1)Cc1nc2c(c(=O)n(C)c(=O)n2C)n1Cc1ccccc1Cl | 118.4%
O=S(=O)(c1cc(Cl)ccc1Br)N1CCCCC1 | -4.1%
COc1ccc(/C(C)=N\n2cnnc2)cc1 | -4.7%
CCOC(=O)C1=C(N)OC2=C(C(=O)CC(C)(C)C2)C1c1ccoc1 (stereo not drawn) | 10.2%
Cc1ccnc2c(N3C(=O)C4C5C=CC(C5)C4C3=O)cccc12 (stereo not drawn) | 8.7%
CCC(=O)N1CCN(c2ccc(Cl)cc2NC(=O)Cc2ccccc2)CC1 | 84.0%
Nc1ncnc2c([C@@H]3O[C@@H](CO)[C@H](O)[C@@H]3O)nsc12 | -4.0%[5.75 µM]
CS(=O)(=O)N(CC(=O)Nc1cccnc1)c1ccc2c(c1)OCCO2 | -6.1%
Cc1ccccc1CSCC(=O)c1c(N)n(C)c(=O)n(C)c1=O | 15.0%
CCOC(=O)c1ccc(N2CSC3=C(C#N)C(c4ccc(OC)cc4OC)CC(=O)N3C2)cc1 (stereo not drawn) | 8.3%
c1ccc(CSc2nnc(Cc3ccccn3)o2)cc1 | -4.4%
CCC(=O)Nc1ccc(S(=O)(=O)c2ccc(NC(=O)CC)cc2)cc1 | 1.9%
Cc1ccc(-n2c(SCC(=O)OC(C)C)nnc2-c2cnccn2)cc1 | 41.7%
CN1C(=O)NC(c2cccc(O)c2)C(C(=O)c2cccs2)C1(O)C(F)(F)F (stereo not drawn) | 6.8%
C=CCn1c(C)cc(C(=O)CN2C(=O)c3ccccc3C2=O)c1C | 5.1%
CC(C)Cn1c(CN(Cc2ccccc2)Cc2ccccc2)nc2c1c(=O)n(C)c(=O)n2C | 136.5%
CC1N=C2c3ccccc3N=C(SCc3cc(=O)n4ccccc4n3)N2C1=O (stereo not drawn) | 5.0%
FC(F)(F)c1nc2ncc(Cl)cc2[nH]1 | -10.8%
O=C(CCCSc1nc2ccccc2[nH]1)N1CCN(c2ccccc2)CC1 | 34.2%
Cn1c(C(=O)OC(C(=O)NC2CCCCC2)c2ccncc2)cc2sccc21 (stereo not drawn) | 91.7%
Cc1ccc(C(O)CN2C3=NCCN3c3ccccc32)cc1 (stereo not drawn) | -6.1%
CC(=O)N(c1ccccc1)C1SC(=O)N(c2ccccc2)C1=O (stereo not drawn) | 9.4%
N=c1c2c(-c3ccccc3)c(-c3ccccc3)n(Cc3ccco3)c2ncn1Cc1ccco1 | 49.7%
COCCn1c(SCC(=O)NCCc2ccccc2)nnc1-c1ccco1 | 4.6%
O=C(CN1CCOCC1)NC1C2CC3CC(C2)CC1C3 (stereo not drawn) | 11.6%
COc1cccc(Cn2c(=O)c(-c3cc(F)cc(F)c3)nc3cnc(N4CCNCC4)nc32)c1 | 81.1%
Nc1nnc(CC(=O)NCc2ccccc2)s1 | -7.9%
O=C1c2oc3ccccc3c(=O)c2C(c2cccc(Br)c2)N1Cc1ccco1 (stereo not drawn) | 61.5%
O=C(OCCN1CCOCC1)c1cccnc1 | 3.7%
Cc1nc2c(-c3ccccc3)c(C)nn2c(C)c1CCC(=O)N1CCC2(CC1)OCCO2 | 129.6%
CN(C(=O)c1ccncc1)C1CCS(=O)(=O)C1 (stereo not drawn) | -7.8%
Nc1cc(N)nc(SCC(=O)Nc2ccc3c(c2)OCCCO3)n1 | -10.4%
CCN1CCCC1CN(Cc1cc2ccc(C)c(C)c2[nH]c1=O)C(=O)Nc1ccccc1OC (stereo not drawn) | 52.1%
CCSc1nnc(Cc2cc(=O)[nH]c(=O)[nH]2)n1-c1ccc(F)cc1 | 6.3%
CC(=O)ON(C(C)=O)S(=O)(=O)c1ccc(Cl)cc1 | 2.1%
O=C(O)C1CC(=O)N(Cc2ccccc2)C1 (stereo not drawn) | 2.3%
O=C(Nc1nncs1)C1COc2ccccc2O1 (stereo not drawn) | 7.5%
O=C(O)c1ccc2oc(SCC(=O)N3CCCCC3)nc2c1 | 7.0%
CCOc1ccccc1NC(=O)C1CCN(c2ccc(S(=O)(=O)N3CCCC3)cc2)CC1 | 43.0%
CN1CCN(CC(=O)N2CCn3c4c(c5cc(C6CCCCC6)ccc53)CCCC42)CC1 (stereo not drawn) | 63.9%
O=C(CCC1CCCC1)N1CCN(C(=O)c2ccco2)CC1 | 29.1%
O=C(O)c1ccc2c(c1)nnn2C1CCCCC1 | -13.0%
CCN(CC(=O)Nc1ccc2c(c1)OCCO2)CC(=O)Nc1cc(C)on1 | 7.5%
O=C(NCCOc1ccccc1)c1ccc2c(c1)OCO2 | 2.9%
Cc1c(C)n(C(=O)CSc2nncn2C)c2ccccc12 | 46.8%
COc1ccc(-c2nnco2)cc1OC | -4.3%
CC(=O)N=c1sc2c3ccccc3ccc2n1C | 21.1%
COc1ccccc1NC(=O)C1=C(C)Nc2ncnn2C1c1ccc(C)o1 (stereo not drawn) | 2.7%
c1csc(CNc2nc(-c3ccc4c(c3)OCO4)nc3ccccc23)c1 | -13.4%
CCOc1ccc2[nH]c(=O)c(CN(Cc3ccccc3)C(=O)N3CCCC3)cc2c1 | 39.7%
C=CCC1(O)C(=O)N2C(=C1C(=O)N1CCOCC1)c1ccccc1CC2(C)C (stereo not drawn) | 32.8%
Cc1cccc(-n2ncc3c(NC(C)C)ncnc32)c1 | 18.8%
CCOC1(OCC)N=C(N)C2(C#N)C(c3cccc(OC)c3OC)C12C#N (stereo not drawn) | 42.9%
NC(=O)c1c(N)sc2c1CCCCC2 | -4.2%
CCN(CC)S(=O)(=O)c1cccc(C(=O)NCC(=O)OCC(=O)NCc2ccccc2)c1 | 18.8%
CCOc1ccc(NC(=O)CCNc2c(N3CCCC3)c(=O)c2=O)cc1 | -7.1%
C=CCN1C(=O)C2(c3ccccc31)C1CCCC=C1C(C#N)=C(N)C2(C#N)C#N (stereo not drawn) | -3.1%
O=C(CSc1nc(-c2ccccc2)cs1)NCc1ccco1 | -8.6%
COc1ccc(C=Nc2c(O)ccc3ccccc23)cc1OC | 30.4%[5.75 µM]
Cc1ccc(S(=O)(=O)Nc2cc(NC(=O)CN3CCOCC3)ccc2Cl)cc1 | 14.0%
Cc1cc(NC(=O)NC(=O)c2ccc(F)cc2F)n[nH]1 | -9.6%
O=S(=O)(NCCNC/C=C\c1ccc(Br)cc1)c1cccc2cnccc12 | 20.4%
Nc1ccc(Cc2ccc(N)c(Cl)c2)cc1Cl | -3.6%
Cn1nnnc1SCc1nc2ccccc2[nH]1 | -6.0%
CC[C@@H]1OC(=O)[C@@H](C)[C@H](O[C@@H]2C[C@@](C)(OC)[C@@H](O)[C@H](C)O2)[C@H](C)[C@H](O[C@@H]2O[C@@H](C)C[C@@H](N(C)C)[C@H]2O)[C@@](C)(O)C[C@H](C)C(=O)[C@@H](C)[C@H](O)[C@@]1(C)O | 15.1%
O=C(Nc1nc2cc3c(cc2s1)OCCO3)c1cccc(S(=O)(=O)N2CCOCC2)c1 | 64.1%
COc1ccccc1N1CCN(C(=O)COc2ccc(C)cc2Br)CC1 | 111.1%

Carrying on.
SMILES | AmpC inh no det
CCOC(=O)c1ccc(NC(=O)c2cnccn2)cc1 | 7.4%
COc1cc([C@H]2c3cc4c(cc3[C@@H](O[C@H]3O[C@H]5CO[C@@H](C)O[C@H]5[C@@H](O)[C@@H]3O)[C@@H]3COC(=O)[C@H]23)OCO4)cc(OC)c1O | 3.4%[12.8 µM]
COCCCNc1nc2c(c(=O)[nH]c(=O)n2C)n1CC(O)COc1cccc(C)c1 (stereo not drawn) | 40.9%
COc1ccccc1NC(=O)N1CCc2[nH]c3ccc(F)cc3c2C1 | 54.8%
O=C(CCn1cnc2ccccc2c1=O)Nc1ccc2c(c1)OCCO2 | -13.4%
Cc1cc(C)c(C#N)c(N2CCN(CCOc3ccc(Cl)cc3)CC2)n1 | 83.5%
CCn1c(C)nc2cc(C(=O)OCCC(F)(F)F)ccc21 | 35.8%
Cc1ccc(NC(=O)CSc2nc3ccccc3c(=O)n2CCCC(=O)N2CCCC2)cc1 | 138.0%
Cc1cc(C)c(NC(=O)C(C)(C)C)c(Cl)c1 | 1.4%
O=C1CSC(=Nc2ccccc2Cl)N1 | -9.2%
COc1ccccc1-c1nnc(SCc2nc3ccccc3[nH]2)n1C | 37.3%
COc1ccc(CCNC(=O)C2CCN(C(=O)N(C)C)CC2)cc1OC | 1.4%
COc1cc2[nH]c(=O)n(CCCCCC(=O)NCCCN3CCOCC3)c(=O)c2cc1OC | 16.6%
Cc1nnc2sc(-c3csc4c3CCCC4)nn12 | 42.4%
CCS(=O)(=O)Nc1ccc(C(=O)CC2(O)C(=O)Nc3ccccc32)cc1 (stereo not drawn) | -11.5%
COc1ccc(Cl)cc1NC(=O)c1cccnc1 | 3.6%
Cc1cccc(-n2c(C)nc3c(cnn3-c3ccc(F)cc3)c2=O)c1 | 30.8%
Nc1nc(CSc2nnnn2-c2ccccc2)nc(N2CCCc3ccccc32)n1 | 14.4%
CCNc1ncc2nc(-c3ccc(OC)cc3)c(=O)n(Cc3cccc(OC)c3)c2n1 | 10.5%
COc1nccc(Nc2ccccc2)c1C#N | -7.2%
CCOC(=O)N1CCN(C(=O)CCn2nc(-c3ccc(Cl)cc3)ccc2=O)CC1 | 110.8%
Cc1ccc(Nc2cc(C)nc3nc(C)nn23)c(C)c1 | 18.5%
CC1(C)CC(=O)C(CC(=O)NC(=O)NCc2ccccc2)=C(O)C1 | -8.6%
NCCCC(=O)N1c2ccccc2Sc2ccccc21 | 27.4%
COc1ccccc1NC(=O)c1ccccc1-c1nc(-c2ccccc2OC)no1 | 67.2%
COc1ccc(N2CCN(C(=O)CSc3nnnn3-c3ccc4c(c3)OCCO4)CC2)cc1 | 44.3%
Oc1ccc2ccccc2c1CN(Cc1c(O)ccc2ccccc12)C1CCCCC1 | -5.6%[5.75 µM]
Cc1[nH]c(-c2ccco2)nc1C(=O)O | -9.8%
COc1ccccc1CNc1cc(-c2ccccc2C)ncn1 | 9.0%
CCCC(=O)Nc1ccccc1NC(C)=O | -6.8%
COc1ccc(NC(=O)CSc2nnc(-c3cccs3)n2Cc2ccco2)cc1OC | 47.3%
COc1ccc(N(CC(=O)Nc2ccc3c(c2)OCCO3)S(=O)(=O)c2cccnc2)cc1 | 5.4%
O=C(CCC1CCCC1)c1c(O)c2ccccc2oc1=O | -4.7%
COc1ccc(CN2CCCCC2c2cccnc2)c(OC)c1C (stereo not drawn) | -2.5%
COc1ccc(-n2c(C)nnc2SCC(=O)N2C(C)CCCC2C)cc1 (stereo not drawn) | 50.3%
Cn1c2ccccc2c2cc(C(=O)OCC(=O)N3CC(=O)Nc4ccccc43)sc21 | 15.3%
O=C(/C=N\O)NCCCNCc1ccccc1 | -3.3%
O=C(Nc1c(F)cc(F)cc1Br)c1ccco1 | 9.5%
COC(=O)c1[nH]c2cccc(OC)c2c1NC(=O)CCN1CCC(C(N)=O)CC1 | 2.1%
COc1cccc(Nc2ncc3nc(-c4cccs4)c(=O)n(Cc4cccs4)c3n2)c1 | 3.8%
CCCCn1c(-c2ccccc2)nc2c(=O)n(C)c(=O)[nH]c21 | -11.1%
CCOC(=O)CC1=CSC2=NS(=O)(=O)CCN12 | 4.8%
Cc1ccc2nc(SCC(=O)N3CCCC3)[nH]c2c1 | -0.3%
COc1cccc(OCCCCCN2CCOCC2)c1 | 23.1%
O=S(=O)(Cc1ccccc1)/C1=C(\N2CCOCC2)CCCCCC1 | 22.6%
O=C(CNC(=O)c1ccco1)OCC(=O)c1ccc2c(c1)CCCC2 | 15.5%
O=C(O)[C@H]1[C@H](C(=O)O)[C@H]2CC[C@@H]1O2 | 8.7%
O=C(Cn1nnc(-c2ccc(CN3CCOCC3)cc2)n1)Nc1nc(-c2ccccc2)cs1 | 79.3%
ON1C(c2ccccc2)CC2(O)c3nonc3CCC12 (stereo not drawn) | 6.6%
Cn1c(/C(C#N)=C(\O)CN2CCN(Cc3ccccc3)CC2)nc2ccccc21 | 36.3%
C#CCOC(=O)CCC(=O)NCCc1ccccc1 | -7.8%

Rewritten in markdown: entries from further up
| SMILES | AmpC inh no det |
| --- | --- |
| Cc1ccc2nc(SCC(=O)N3CCCC3)[nH]c2c1 | -0.3% |
| COC(=O)c1[nH]c2cccc(OC)c2c1NC(=O)CCN1CCC(C(N)=O)CC1 | 2.1% |
| COc1cccc(Nc2ncc3nc(-c4cccs4)c(=O)n(Cc4cccs4)c3n2)c1 | 3.8% |
| O=C(O)[C@H]1[C@H](C(=O)O)[C@H]2CC[C@@H]1O2 | 8.7% |
| COc1cccc(OCCCCCN2CCOCC2)c1 | 23.1% |
